Compound activity (PubChem BioAssay)
Mtb MbtI inh: blocks the Mycobacterium tuberculosis siderophore enzyme MbtI; P9WFX0; purified MbtI enzyme, fluorescence intensity read-out; inhibition, %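 (about 17 µg/mL by stock and volumes)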; 100,000 tested, 0.89% active; AID 493033;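 active means above 50% in both replicates, above 80% if mildly self-fluorescent; inactive means the rest, strongly fluorescent compounds included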;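 further: 0% = mean of negative and 100% = mean of positive controls; one replicate is shown; some compounds called inactive have numbers as strong as hits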
Target sequence (P9WFX0 whole entry, looked up): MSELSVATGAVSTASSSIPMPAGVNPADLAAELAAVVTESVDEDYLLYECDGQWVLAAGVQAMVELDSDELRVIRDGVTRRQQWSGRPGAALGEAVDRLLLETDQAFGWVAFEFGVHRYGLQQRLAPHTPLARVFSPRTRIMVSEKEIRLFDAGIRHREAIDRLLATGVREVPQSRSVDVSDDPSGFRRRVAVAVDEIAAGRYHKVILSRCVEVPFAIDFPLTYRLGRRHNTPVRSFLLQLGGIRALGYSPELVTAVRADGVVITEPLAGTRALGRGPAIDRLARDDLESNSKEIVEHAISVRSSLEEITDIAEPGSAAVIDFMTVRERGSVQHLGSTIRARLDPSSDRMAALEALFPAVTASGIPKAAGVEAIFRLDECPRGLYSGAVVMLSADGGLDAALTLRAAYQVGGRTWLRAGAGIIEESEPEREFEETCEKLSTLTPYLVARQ
* marks the source's active call; other numbers are inactive results. These rows are one share of the data. The share of hits here may be higher or lower than overall.

`O=c1oc2ccccc2n1CO` gave Mtb MbtI inh -6.
`Clc1cccc(Oc2ncnc3c2oc2ccccc23)c1` gave Mtb MbtI inh 2.
Screening CC(=O)NC(O)C(=O)c1ccco1 (centres undefined) returned Mtb MbtI inh -1.
For CSc1nsc(SC)c1NC(=O)OC1CCCCC1 the results were Mtb MbtI inh -5.
`O=C(O)CCC(=O)Nc1ccc2c(c1)Cc1cc(NC(=O)CCC(=O)O)ccc1-2` gave Mtb MbtI inh 9.
`CCCCC(C)n1[nH]c(=O)c2c(C)cc(=O)[nH]c21` (centres undefined) gave Mtb MbtI inh -8.
For CCOC(=O)c1c[nH]c2ccc(C)cc2c1=O the results were Mtb MbtI inh -2.
COc1ccc(-n2nc(C(=O)NCC(=O)NCc3ccccc3OC)c3ccccc3c2=O)cc1 was read as Mtb MbtI inh 49.
CCOc1ccc(C(CN)CC(=O)O)cc1OCC (centres undefined) was read as Mtb MbtI inh -4.
`COC(=O)c1ccccc1-n1cnnn1` gave Mtb MbtI inh -8.
`O=C(CN1CC(c2ccccc2)CC1=O)OCc1cccc(Br)c1` (centres undefined) gave Mtb MbtI inh -7.
CCOC(=O)c1cc2c(=O)n3ccccc3nc2n(Cc2ccco2)c1=NC(C)=O was read as Mtb MbtI inh 70.
For CCOC(=O)N1CCC(N2C(=O)c3ccccc3C2=O)CC1 the results were Mtb MbtI inh -17.
`CCN(c1ccc(F)cc1)S(=O)(=O)c1cccc2nsnc12` gave Mtb MbtI inh 4.
O=C(Cn1nc2c3c(cccc3c1=O)-c1ccccc1-2)c1ccccc1 was read as Mtb MbtI inh -4.
`Cc1ccc(NC(=O)C2CCCO2)cc1` (centres undefined) gave Mtb MbtI inh 32.
CCN(CC)c1ccc2cc(-c3nc4ccccc4c(=O)[nH]3)c(=N)oc2c1 was read as Mtb MbtI inh -5.
Screening CCCC(=O)c1ccc(N2CCc3ccccc3C2)c(F)c1 returned Mtb MbtI inh 1.
COc1ccc(C2C(C(=O)NCc3ccccn3)c3ccccc3C(=O)N2C)cc1 (centres undefined) was read as Mtb MbtI inh -8.
Screening CCN(Cc1ccccc1)S(=O)(=O)c1ccc(C(=O)Nc2nnc(COC)o2)cc1 returned Mtb MbtI inh 3.

Five entries drawn at random from those above:
For CCOC(=O)N1CCC(N2C(=O)c3ccccc3C2=O)CC1 the results were Mtb MbtI inh -17.
`O=C(CN1CC(c2ccccc2)CC1=O)OCc1cccc(Br)c1` (centres undefined) gave Mtb MbtI inh -7.
CCN(CC)c1ccc2cc(-c3nc4ccccc4c(=O)[nH]3)c(=N)oc2c1 was read as Mtb MbtI inh -5.
For CSc1nsc(SC)c1NC(=O)OC1CCCCC1 the results were Mtb MbtI inh -5.
COc1ccc(-n2nc(C(=O)NCC(=O)NCc3ccccc3OC)c3ccccc3c2=O)cc1 was read as Mtb MbtI inh 49.

Following part:
For c1ccc(Cc2noc(-c3ccccc3)n2)cc1 the results were Mtb MbtI inh -12.
`Cc1ccc(N)cc1CN1CCCC1=O` gave Mtb MbtI inh 0.
For Nc1cc(=O)[nH]c(=O)n1CCO the results were Mtb MbtI inh -13.
`CC(C)(O)C#CC(O)c1ccc(F)cc1` (centres undefined) gave Mtb MbtI inh -7.
O=C(O)c1cc2ncc(Br)cn2n1 was read as Mtb MbtI inh -4.
CCOC(=O)Cc1c(C)nc2c(C#N)c(C)nn2c1C was read as Mtb MbtI inh 8.
For CCCC(=O)N1CCS(=O)CC1 the results were Mtb MbtI inh -6.
CC1CC(C)(C)NC(=S)N1CCCC(=O)NCc1ccccc1 (centres undefined) was read as Mtb MbtI inh 2.
COc1ccc(S(=O)(=O)Nc2nc3ccccc3s2)cc1OC was read as Mtb MbtI inh 18.
`O=C1C2C3C=CC(C3)C2C(=O)N1CCCO` (centres undefined) gave Mtb MbtI inh 2.
Screening C=CCc1cccc(CNc2cnc3ccccc3c2)c1O returned Mtb MbtI inh -221.
Screening C=CCn1c(NC(=O)c2ccc(C)cc2)c(C#N)sc1=N returned Mtb MbtI inh -16.
Cc1nn(-c2ccccn2)c2c1-c1nc(N)ncc1CC2 was read as Mtb MbtI inh -13.
Screening O=C(O)c1c(-c2ccccc2)c2oc3ccccc3c2[nH]c1=O returned Mtb MbtI inh -18.
O=C(NCC1CCCO1)c1coc2nc3ccccc3nc12 (centres undefined) was read as Mtb MbtI inh -112.
Screening CNC1(c2nnnn2CCOC(=O)Nc2ccc(Cl)cc2)CCCC1 returned Mtb MbtI inh -6.
Screening CC1C(=O)CCN(C2CC2)C1C (centres undefined) returned Mtb MbtI inh -10.
`N=c1c2c3c(sc2ncn1Cc1ccccc1)CCCC3` gave Mtb MbtI inh -14.
`COc1ccc(S(=O)(=O)N2CCCCC2c2cccnc2)cc1` (centres undefined) gave Mtb MbtI inh -10.
Screening O=C(Cc1ccccc1)Nc1cccc(-c2nc3ncccc3o2)c1 returned Mtb MbtI inh -10.
For OCC(CO)(CO)NCC(O)CN1c2ccccc2Sc2ccccc21 (centres undefined) the results were Mtb MbtI inh 2.
For COC(=O)c1cc2ccccc2c(CN2C(=O)c3ccccc3C2=O)c1O the results were Mtb MbtI inh -11.
O=C1CC2CS(=O)(=O)CC2N1Cc1cccnc1 (centres undefined) was read as Mtb MbtI inh -7.
For O=C(O)CCC(=O)N1CC=C(c2ccccc2)CC1 the results were Mtb MbtI inh -4.
`CC(C)c1ccc(NC(=O)C2CC(=O)N(c3ccccc3)C(=S)S2)cc1` (centres undefined) gave Mtb MbtI inh 7.
CN(c1ccccc1)C(C(=O)NC1CCCC1)c1ccc(Cl)cc1 (centres undefined) was read as Mtb MbtI inh 7.
For Cn1c(=O)c2c(ncn2Cc2ccc(F)cc2)n(C)c1=O the results were Mtb MbtI inh -10.
`Cc1ccc(C2Nc3ccccc3C(C)(C)O2)o1` (centres undefined) gave Mtb MbtI inh -2.
For NS(=O)(=O)c1ccc(CNC(=O)c2scc3c2OCCO3)cc1 the results were Mtb MbtI inh -14.
For CCOc1cc(C#N)c(NC(=O)c2cccs2)cc1OCC the results were Mtb MbtI inh 3.
Screening COC(=O)COc1nsnc1N1CCOCC1 returned Mtb MbtI inh 17.
Screening CCOC(=O)CC1OC(=O)c2cc3c(cc21)C(=O)OC3CC(=O)OCC (centres undefined) returned Mtb MbtI inh 2.
COc1ccc(C(=O)N(O)c2ccccc2)cc1 was read as Mtb MbtI inh 6.
`O=c1c2cc(-c3ccccc3)sc2nc2c3ccccc3cnn12` gave Mtb MbtI inh -2.
COC(=O)c1sc(=S)n(-c2ccccc2)c1C was read as Mtb MbtI inh 9.
Screening COc1ccccc1C1(CCNC(=O)c2ccccc2C(=O)O)CCOC(C)(C)C1 (centres undefined) returned Mtb MbtI inh -11.
For CCC(C)(C(=O)NC1CCCC1)N(Cc1ccco1)C(=O)c1ccccn1 (centres undefined) the results were Mtb MbtI inh -7.
`O=C(Nc1ccccc1C(=O)O)c1cc(S(=O)(=O)N2CCOCC2)cs1` gave Mtb MbtI inh 10.
O=C(Nc1ccccc1)C1=C(O)CC(c2ccco2)CC1=Nc1ccccc1 (centres undefined) was read as Mtb MbtI inh 3.
Screening O=C1C(=O)c2ccccc2C(O)=C1c1ccccc1F returned Mtb MbtI inh 6.
Cc1c2cn[nH]c(=O)c2c(C)n1Cc1ccccc1 was read as Mtb MbtI inh 2.
Screening COc1ccccc1OCCN1CCN(CCOc2ccccc2OC)CC1 returned Mtb MbtI inh -7.
`CCOC(=O)c1ccc(-c2nnc(COc3cccc(C)c3)o2)cc1` gave Mtb MbtI inh -18.
`COC(=O)c1ccc(COc2ccc(/C=N\O)cc2)o1` gave Mtb MbtI inh 2.
Screening Cc1ccc(OCCn2c(SCC(N)=O)nc3ccccc32)cc1 returned Mtb MbtI inh -14.
CC(C)Oc1ccccc1NC(=O)CSc1nnc(-c2ccco2)n1-c1ccccc1 was read as Mtb MbtI inh -6.
`Cn1c(=N)n(CC(=O)O)c2ccccc21` gave Mtb MbtI inh -3.
`CCn1c(C)nc2c1C(=O)c1ccccc1C2=O` gave Mtb MbtI inh -11.
Screening COc1nc(-c2ccc(Cl)cc2)nc2ccccc12 returned Mtb MbtI inh -8.
Screening Nc1ccc2nc(-c3ccccc3Br)sc2c1 returned Mtb MbtI inh -261.
Screening CCCn1nnc(NC(=O)Cc2ccc(Cl)cc2)n1 returned Mtb MbtI inh -19.
Screening Cc1cc(=O)oc2cc(OC(=O)c3ccco3)ccc12 returned Mtb MbtI inh inactive.
For CN(C)c1nc2n(c(=O)n1)CCS2 the results were Mtb MbtI inh -5.
For CN(C(=O)CN1C(=O)c2ccccc2C1=O)C1CCCCC1 the results were Mtb MbtI inh -5.
Screening Cn1c(=O)n(C)c2cc(CN3C(=O)OC(C)(C)C3(C)O)ccc21 (centres undefined) returned Mtb MbtI inh -11.
Screening O=C(O)c1ccc(C2NCc3ccccc3-n3cccc32)cc1 (centres undefined) returned Mtb MbtI inh -10.
CC(C(=O)O)n1cnc2ccccc21 (centres undefined) was read as Mtb MbtI inh -18.
Cc1ccc(C)c(-c2cc(C)ncc2C)c1 was read as Mtb MbtI inh 3.
For COC(=O)c1sccc1-n1cccc1 the results were Mtb MbtI inh -6.
For CCCN1CCOC(CC(=O)Nc2ccc(Br)cc2Br)C1=O (centres undefined) the results were Mtb MbtI inh 87*.
`CC1CN(C)C(C)CC1OC(=O)c1ccco1` (centres undefined) gave Mtb MbtI inh -10.
`O=C(NCc1cccnc1)c1ccc(COc2ccc3c(c2)CCC3)o1` gave Mtb MbtI inh -10.
For CC1CC2c3cccc(C(=O)O)c3C(=O)N2Cc2ccccc21 (centres undefined) the results were Mtb MbtI inh -11.
For CC1(C)CC(C(CC(=O)N2CCCC2)Cc2ccccc2)CCO1 (centres undefined) the results were Mtb MbtI inh -17.
O=c1c2cc(NC(=S)NCC3CCCO3)ccc2nc2n1CCCCC2 (centres undefined) was read as Mtb MbtI inh 3.
CN(C(=O)CCCN1C(=O)c2ccccc2C1=O)C1CC(C)(C)N(C)C(C)(C)C1 was read as Mtb MbtI inh 2.
For Nc1ccn(-c2ccccc2)n1 the results were Mtb MbtI inh 0.
Screening COC(=O)Cc1c(C)c2ccc(O)cc2oc1=O returned Mtb MbtI inh 90.
Screening CC(=O)OCCn1c(=O)c2cc3c(=O)n(CCOC(C)=O)c(=O)c3cc2c1=O returned Mtb MbtI inh -5.
Cc1ccc(OCC(=O)NCCc2ccccc2)cc1 was read as Mtb MbtI inh 2.

The list goes on, starting with the last 2 of the part before.
Screening CC(=O)OCCn1c(=O)c2cc3c(=O)n(CCOC(C)=O)c(=O)c3cc2c1=O returned Mtb MbtI inh -5.
Cc1ccc(OCC(=O)NCCc2ccccc2)cc1 was read as Mtb MbtI inh 2.
Screening Cc1ccsc1-c1ncnn1-c1ccccc1 returned Mtb MbtI inh -6.
`Cc1cc(C)c2cc3c(cc2n1)CCN3CC(O)CO` (centres undefined) gave Mtb MbtI inh -22.
`Nc1nnc2c([nH]c3ccccc32)c1-c1ccccc1` gave Mtb MbtI inh -40.
Screening CC(C)(C)C1CCC2(CC1)NC(CO)(CO)CO2 (centres undefined) returned Mtb MbtI inh -3.
CCC(=O)Nc1nc2ccccc2n1CCN(C)C was read as Mtb MbtI inh -4.
`O=c1oc(-c2ccccc2)cc(Cl)c1Cl` gave Mtb MbtI inh inactive.
For CCOC(=O)N1CCC(NC(=O)C(NC(=O)C2CCCCC2)C(C)C)CC1 (centres undefined) the results were Mtb MbtI inh -16.
`CC(NC(=O)c1cccs1)C(=O)N1CCCCC1` (centres undefined) gave Mtb MbtI inh -4.
`Cn1cnc(S(=O)(=O)N2CCc3ccccc32)c1` gave Mtb MbtI inh -9.
`COc1ccc(C2C(C(=O)N3CCOCC3)CCC(=O)N2c2ccc(OC)cc2)cc1` (centres undefined) gave Mtb MbtI inh -1.
`COc1cc(CNS(=O)(=O)c2ccc(CN3C(=O)c4ccccc4C3=O)cc2)cc(OC)c1OC` gave Mtb MbtI inh -16.
O=C(O)CC(Cc1ccccc1)c1ccc2c(c1)OCO2 (centres undefined) was read as Mtb MbtI inh 3.
For CC(=O)N1CCC(Nc2ccc(C)cc2)CC1 the results were Mtb MbtI inh -10.
O=C(O)CC1OC(=O)c2cc3c(cc21)C(=O)OC3CC(=O)O (centres undefined) was read as Mtb MbtI inh -9.
`O=C(O)c1cc2c(s1)CS(=O)(=O)C2` gave Mtb MbtI inh -8.
Screening CCC(C)NC(=O)c1coc2nc3ccccc3nc12 (centres undefined) returned Mtb MbtI inh -42.
For CC(=O)Nc1ncc2c(n1)CC(c1ccco1)CC2=O (centres undefined) the results were Mtb MbtI inh -10.
Cc1cccc(NS(=O)(=O)CC23CCC(CC2=O)C3(C)C)c1 (centres undefined) was read as Mtb MbtI inh 3.
COc1ccc(C2CC(=O)NC2=O)cc1Br (centres undefined) was read as Mtb MbtI inh -7.
For O=S(=O)(c1ccc(Br)s1)N1CCCC1 the results were Mtb MbtI inh 6.

Entries above that have a Cl atom (six):
`Clc1cccc(Oc2ncnc3c2oc2ccccc23)c1` gave Mtb MbtI inh 2.
Screening CNC1(c2nnnn2CCOC(=O)Nc2ccc(Cl)cc2)CCCC1 returned Mtb MbtI inh -6.
CN(c1ccccc1)C(C(=O)NC1CCCC1)c1ccc(Cl)cc1 (centres undefined) was read as Mtb MbtI inh 7.
Screening COc1nc(-c2ccc(Cl)cc2)nc2ccccc12 returned Mtb MbtI inh -8.
Screening CCCn1nnc(NC(=O)Cc2ccc(Cl)cc2)n1 returned Mtb MbtI inh -19.
`O=c1oc(-c2ccccc2)cc(Cl)c1Cl` gave Mtb MbtI inh inactive.
